From PubChem
AID504770: growth inhibitors of E. coli YBA685 in a screen for V. cholerae RctB (chromosome II replication) inhibitors | E. coli YBA685 rctB-dependent plasmid, OD600 growth, 3 h; hits give low values | z-score (test concentration not listed) | hit rate 0.27% among 130,000 | AID 504770;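 active = z-score under -2 on both plates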;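 also: wells of about 30 µL received 100 nL stock; score is relative to mean and SD of the test wells; the first replicate is given; strong numbers were not always called active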
Ba CapD inh: inhibitors of Bacillus anthracis CapD enzyme. purified CapD enzyme, fluorescence intensity read-out; hits give low values; some hits fall short of the stated cut. z-score (test concentration not listed). hit rate 0.23% among 140,000. AID 492967;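 active = z-score under -4 in either of two replicates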;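 also: stock transfer was 100 nL into about 40 µL; score is relative to mean and spread of the plate; one replicate is shown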
* = called active by the depositor; nt = no result given; & = joins results of further samples.

Order of values – AID504770	Ba CapD inh
- O=C(COc1ccc(Cl)cc1)N1CCN=C1SCc1cccnc1
→ 1	nt
- CCc1nnc2sc(-c3ccc(OC)c(OC)c3)nn12
→ nt	-0.22
- O=c1cc(N2CCCCC2)[nH]c(=O)n1C1CCCCC1
→ 2.6	-0.41
- O=C(Nc1ccc(Cl)cc1)C1CCCN1S(=O)(=O)c1ccc(Cl)cc1 (stereo not drawn)
→ nt	-0.19
- O=C(NCc1ccccc1F)c1cccc(N2C(=O)CCC2=O)c1
→ -0.35	nt
- N#CC1=C(SCC(=O)NC2CCCCC2)NC(=O)CC1c1ccco1 (stereo not drawn)
→ -0.2	-0.47
- COc1ccc(C2Nc3ccc4ncccc4c3C3=C2C(=O)CCC3)cc1 (stereo not drawn)
→ nt	16
- NC(=O)COc1ccc(/C=c2/sc3nc4ccccc4n3c2=O)cc1
→ -1.6	-0.34
- CSc1ccc(CCNC(=O)c2cc3c(s2)-c2ccccc2S(=O)(=O)C3)cc1
→ 0.35	1.6
- O=C(c1ccccc1)N(C(=O)c1ccccc1)c1nc2c(s1)CCCC2
→ nt	-1
- CSc1n[nH]c(-c2ccc(Cl)cc2)c1C#N
→ nt	0.015
- COc1ccc(S(=O)(=O)NCc2ccc(F)c(Cl)c2)cc1
→ nt	-0.53
- O=C(COC(=O)Cc1c[nH]c2ccccc12)Nc1ccccc1C(=O)NC1CC1
→ -0.35	nt
- CCC(NC(C)=O)c1ccccc1 (stereo not drawn)
→ -0.55	nt
- Cc1nc(CSc2n[nH]c(C(F)(F)F)n2)cs1
→ -0.45	1
- O=C1CCCc2[nH]c(=O)c(C(=O)Nc3ccc(Cl)cc3)cc21
→ 0.85	-0.51
- COC(=O)C1=CN(Cc2ccc(OC)cc2)C=C(C(=O)OC)C1c1cccc(Oc2ccccc2)c1
→ nt	7.1
- CC(=O)Nc1cccc(C(F)(F)F)c1
→ nt	0.1
- O=C(Nc1cc2c3c(c1)C1CCCC1CN3CC1CCCC21)c1ccccc1F (stereo not drawn)
→ nt	0.08
- COC(=O)C1=C(C)NC2=C(C(=O)CC(c3ccc(OC)c(OC)c3)C2)C1c1ccc(OC)c(OC)c1OC (stereo not drawn)
→ nt	8.4
- C=CCc1c(C)nc(SCC(=O)c2ccc(Cl)cc2)[nH]c1=O
→ nt	0.42
- Cc1ccc(C(=O)c2ccc(CC(=O)O)n2C)cc1
→ 0.35	-0.93&-0.51
- Cc1cc(C)cc(NC(=O)Nc2ccc(S(=O)(=O)Nc3cc(C)on3)cc2)c1
→ nt	-0.68
- CC(C)OC(=O)c1cc2c(ccn2C)n1CC(=O)N1CCN(c2ccccc2F)CC1
→ -0.45	nt
- Cc1cc(C)c(C)c(S(=O)(=O)N2CCN(C(c3ccc(F)cc3)c3ccc(F)cc3)CC2)c1C
→ nt	0.43
- O=C(Nc1ccc(-c2nc3ccccc3s2)cc1)c1ccno1
→ 0.5	0.95
- COCc1c(C(=O)NCC2COc3ccccc3O2)oc2ccccc12 (stereo not drawn)
→ -0.75	nt
- CCOC(=O)N1CCN(S(=O)(=O)c2ccc(C(=O)Nc3cccc(-c4nc5ccccc5o4)c3)cc2)CC1
→ nt	0.5
- CCC(=O)C(CC(C)N(C)C)(c1ccccc1)c1ccccc1 (stereo not drawn)
→ nt	2.3
- N#CC(C#N)c1ccc(C(F)(F)F)cn1
→ 0.7	54
- Cc1cc(-c2onc(C)c2/C(N)=N/O)no1
→ -0.75	0.46
- COc1ccc(-c2cc(C3CC3)c(C#N)c(N)c2C#N)cc1
→ 0.15	nt
- O=C1CC(=O)CC(c2c(F)cccc2Cl)C1
→ -0.35	1.3
- COc1ccc(CN(C(=O)c2ccc(CN3CCOCC3)o2)C(C(=O)NCC2CCCO2)c2ccc(F)cc2)cc1 (stereo not drawn)
→ -0.55	nt
- COC(=O)CCN1C(=O)/C(=C\c2ccc(O)c(OC)c2)SC1=S
→ 0	-0.13
- COc1cc(OC)cc(C(=O)Nn2c(-c3ccc(Br)cc3)nc3ccccc3c2=O)c1
→ nt	-0.18
- Cc1nc(N)nc(C)c1CCC(=O)O
→ 0.75	nt
- Cc1cccc(Cc2cnc(N3C(=N)SC(C)C3=O)s2)c1 (stereo not drawn)
→ -0.25	nt
- C/C(=N\O)C(=O)c1ccc(C)cc1
→ -0.45	nt
- O=C(c1ccc(=O)n(Cc2c(Cl)cccc2Cl)c1)N1CCCC1
→ nt	0.38
- CCCCn1c(=O)[nH]c2ccccc2c1=O
→ -0.3	nt
- N#CSc1ccc(N)cc1
→ -1.5	-1.9
- O=C(NCc1ccc(Cl)cc1Cl)c1ccc(Br)o1
→ -1.2	-0.33
- O=C(c1ccc(F)cc1)N1CCCC2C=CC=CC21 (stereo not drawn)
→ 0.4	0.74
- COC(=O)c1ccc2c(=O)n(-c3ccc(C)cc3)c(Nc3ccccc3)nc2c1
→ 0	0.91
- Cc1cc(S(=O)(=O)NCc2ccccc2)ccc1OCC(=O)N1CCOCC1
→ 0.5	-0.71
- Cc1nc(SCc2ccccc2C#N)n(C2CCCC2)c1C
→ -1.6	nt
- COCc1cc(Cl)nc2cc(NC(=O)C(F)(F)F)c(C)cc12
→ -1.1	0.46
- CCOC(=O)c1c(C)nn(-c2ccc(C(F)(F)F)cc2)c1C
→ nt	0.44
- N#Cc1ccccc1NC(=O)COc1ccc2ccc(=O)oc2c1
→ 0.3	nt
- CCN(CC)S(=O)(=O)c1c(C)cc(C)cc1C
→ 2.5	-0.39
- C=CCNC(=O)CSc1nnc(CSc2cccs2)n1C
→ 1.6	0
- CN1CCN(C(=O)N2c3ccccc3CCc3ccccc32)CC1
→ nt	-0.31
- CCc1ccc(OCC(O)Cn2c(SCCC(=O)O)nc3c2c(=O)[nH]c(=O)n3C)cc1 (stereo not drawn)
→ nt	-0.29
- Cc1csc(=O)n1CC(=O)OCC(=O)NC1(C#N)CCCCC1
→ 1.3	nt
- O=c1cc(N2CCN(c3ccccc3)CC2)[nH]c(=O)n1-c1ccc(Cl)cc1
→ 0.3	69
- Cc1ccc(N=c2oc3cc(O)ccc3cc2-c2nc(-c3ccc(Br)cc3)cs2)cc1
→ nt	-0.34
- COc1ccc(OC)c(Nc2nc3nonc3nc2Nc2ccc(F)cc2)c1
→ nt	-0.17
- CN1CCN(/C=N/c2ncc(C(F)(F)F)cc2Cl)CC1
→ nt	1.4
- C=CCN(CC=C)C(=O)c1cccc(OC)c1
→ 0.45	0.83

The list goes on:
Order of values – AID504770	Ba CapD inh
- O=C(NC1=NCCCCCN1)Nc1cccc(Cl)c1
→ 0.5	0.55
- O=CN/N=C/c1ccc(Cl)cc1
→ -0.8	nt
- c1coc(-c2nc3ccccc3nc2-c2ccco2)c1
→ nt	1.3
- FC(F)(F)c1ccc(Cl)c(NC(=S)NN=C2CCCCCC2)c1
→ nt	0.69
- COc1ccc(C2Nc3nc4ccccc4n3C(C)=C2C(=O)Nc2ccccc2)cc1 (stereo not drawn)
→ 1.4	1.7
- OC(Cc1nc2ccccc2o1)c1ccccc1 (stereo not drawn)
→ -0.2	4.6
- NS(=O)(=O)c1ncn(Cc2ccccc2)n1
→ -0.45	0.29
- CC1=[N+](CCC#N)c2ccccc2C1(C)C
→ -1.1	0.33
- Cc1ccc(NS(=O)(=O)Cc2ccccc2)nc1
→ 0	20
- COc1ccc2c(c1)c(=O)c1ccccc1n2CC(=O)Nc1ccc(C(F)(F)F)cc1
→ nt	0.41
- O=C(CN1C(=O)C2(OCCO2)c2ccccc21)NO
→ nt	-0.17
- O=C(Nc1ccc(-n2nc(C(F)(F)F)cc2-c2cccs2)cc1)c1ccno1
→ 2.3	0.97
- CCCCc1ccc(NC(=O)N=S2CCN(c3ncc(C(F)(F)F)cc3Cl)CC2)cc1
→ -0.85	-0.05
- Cc1ccc(-n2ncc(Cl)c(Sc3ccc(Cl)cc3)c2=O)cc1
→ nt	-0.83
- COc1ccc(N(C)C(=O)C2CCC(CNS(=O)(=O)c3cccc4nsnc34)CC2)cc1 (stereo not drawn)
→ 0	-0.36
- CC1CCC(NC(=O)c2cc(S(=O)(=O)N3CCCCC3)c[nH]2)CC1 (stereo not drawn)
→ 3.5	-2.1
- CCc1ccc2c(CC(=O)Nc3cccc(-c4nnc5n4CCCCC5)c3)coc2c1
→ 0.7	nt
- CSc1c(C#N)c(-c2cc(C(C)(C)C)oc2C)nn1-c1ccccc1
→ -0.95	9.8
- O=C(CCCSc1nc2scc(-c3cccs3)c2c(=O)n1-c1ccccc1)N1CCOCC1
→ 2.5	nt
- CN(C(=O)CSc1nncn1-c1ccccc1)c1ccccc1
→ 0.35	nt
- N#Cc1c(NC(=O)CSc2nc3ccccc3[nH]2)sc2c1CCCC2
→ nt	-0.58
- Cc1ccc2nc(-c3cccnc3)oc2c1
→ -0.3	79
- CC(=O)N1c2ccccc2NC(=O)C1(C)C
→ -0.25	0.03
- Cc1csc(-c2coc3cc(O)cc(C)c3c2=O)n1
→ -0.65	nt
- NC(=NC(=O)c1ccc(OCC(F)(F)F)nc1)c1ccccc1
→ 0.45	-0.34
- COC(=O)c1sc(N2CCOCC2)c(C#N)c1-c1ccc(Cl)cc1
→ 0.25	-0.13
- COc1ccc(Br)cc1C1C(C#N)=C(N)OC2=C1C(=O)CC(C)(C)C2 (stereo not drawn)
→ nt	-0.05
- O=S(=O)(N/N=C/c1ccccc1)c1ccccc1
→ -0.05	-0.15
- COc1ccc(OC)c(Nc2nc(Cl)nc(Nc3cc(OC)ccc3OC)n2)c1
→ nt	-0.01
- COc1ccc(OCC(O)CN2C(=O)c3ccccc3S2(=O)=O)cc1 (stereo not drawn)
→ 0.4	-0.47

Five compounds drawn at random from those above, as already listed:
Order of values – AID504770	Ba CapD inh
- CC1CCC(NC(=O)c2cc(S(=O)(=O)N3CCCCC3)c[nH]2)CC1 (stereo not drawn)
→ 3.5	-2.1
- N#Cc1c(NC(=O)CSc2nc3ccccc3[nH]2)sc2c1CCCC2
→ nt	-0.58
- CCc1ccc2c(CC(=O)Nc3cccc(-c4nnc5n4CCCCC5)c3)coc2c1
→ 0.7	nt
- CSc1c(C#N)c(-c2cc(C(C)(C)C)oc2C)nn1-c1ccccc1
→ -0.95	9.8
- Cc1ccc2nc(-c3cccnc3)oc2c1
→ -0.3	79

Additional structures:
Order of values – AID504770	Ba CapD inh
- C#CCn1nc(-c2ccccc2)ccc1=O
→ -0.45	3
- Cc1cc(Cl)c2cccc(Br)c2n1
→ -0.3	nt
- COC(=O)c1ccc(-c2ccc(/C=C3\Sc4ccccc4C3=O)o2)cc1
→ nt	-0.025
- Cc1ccc2c(c1)c(-c1ccccc1)c(-c1ccccc1)n2CCC#N
→ nt	14
- CCOC(=O)c1c(C)noc1-c1csc(COc2cccc(Cl)c2)n1
→ 0	0.63
- CC(C)=CCC/C(C)=C/C1OCCCO1
→ -0.4	nt
- CNCc1ccsc1
→ -0.4	nt
- CC1CN=C(Nc2ccccc2)S1 (stereo not drawn)
→ nt	-0.35
- CC(=O)N1CCSC1C(=O)NN (stereo not drawn)
→ nt	0.25
- CC1(C)COC(c2ccccc2CO)=N1
→ -0.45	0.51
- O=C(Cc1ccccc1)NCC1(c2ccccc2)CCCC1
→ -0.7	-0.045
- Cc1nc2c([nH]1)C(c1ccc(C(C)C)cc1)C(C#N)=C(N)O2 (stereo not drawn)
→ -0.2	-0.86
- Cc1ccccc1-c1nnc(CN2CCc3ccccc3C2)o1
→ -0.8	0.53
- O=C1CC(=O)CC(c2ccc(Cl)cc2)C1
→ nt	0.58
- O=C(CSCC(=O)c1ccc2c(c1)Cc1ccccc1-2)Nc1ccccc1
→ 1.6	0.45
- O=C(Nc1c2c(nn1-c1ccc([N+](=O)[O-])cc1)CS(=O)(=O)C2)c1cc([N+](=O)[O-])ccc1Cl
→ nt	0.24
- Cc1cc(C)nc(Nc2ccc(S(=O)(=O)N(C)C)cc2)n1
→ nt	-0.7
- COC(=O)C1=C(N)OC(C)=C(C(=O)OCc2ccccc2)C12C(=O)Nc1ccccc12 (stereo not drawn)
→ nt	-0.1
- COc1ccc2nc(SC)[nH]c2c1
→ -0.65	0.32
- O=C(c1cccnc1)N1CCc2ccccc2C1
→ -0.6&0.85	-0.19&1
- CCC(C)n1nccc1NC(=O)COc1ccccc1 (stereo not drawn)
→ -1.2	0.52
- Cc1cc(-c2noc(-c3snnc3C)n2)no1
→ -2.2	9
- Nc1ccc(CCc2nc3ccccc3o2)cc1
→ 0.15	3.5
- CC(=O)c1ccc(Sc2ccccc2)c([N+](=O)[O-])c1
→ nt	-0.44
- COc1ccc2[nH]c3c(=O)n(-c4ccc(C)c(C)c4)c(O)nc3c2c1
→ 0.15	40
- CCCN(CCC)CCNc1cc(C)nc2c(-c3ccccc3OC)c(C)nn12
→ -1.6	-0.57
- CSc1ccccc1C(=O)Nc1ccc(S(=O)(=O)N2CCCC2)cc1
→ -0.65	-0.56
- N#Cc1c(CSc2ccccc2N)cc(=O)n2c1sc1ccccc12
→ 1.8	nt
- COC(=O)c1cc2oc(C)cc2n1CC(=O)N1CC(C)CC(C)C1 (stereo not drawn)
→ 1.5	0.65
- CC(=O)Nc1cc(C(=O)NCCCN2CCC(C)CC2)ccc1S(=O)(=O)c1ccc(Cl)cc1
→ 0.1	15
- O=C1CN(C(=O)c2ccc(Nc3ccccc3)c([N+](=O)[O-])c2)c2ccccc2N1
→ nt	0.98
- CC/C=N/NC(=O)c1cccc(F)c1
→ 1.9	nt
- CN(C)N=C1c2cc(S(=O)(=O)N(C)C)ccc2-c2ccc(S(=O)(=O)N(C)C)cc21
→ -0.5	nt
- CC1=N/C(=C/c2cc3ccccc3nc2Sc2ccc(C)cc2)C(=O)O1
→ 2.2	4.1
- CCOc1ccccc1C1C(C(=O)OCCOC)=C(C)NC2=C1C(=O)CC(c1ccc(OC)c(OC)c1)C2 (stereo not drawn)
→ nt	0.56
- O=C(O)CN1C(=O)C2(OCCCO2)c2ccccc21
→ 1.4	0.32
- CCOC(=O)c1cnc(SCC(=O)c2ccccc2)nc1N
→ 2.4	-0.34
